Source: PubChem
NS1 inh: inhibitors of influenza NS1 protein function; Potency, µM (doses to about 46.1 µM), without a hit: top-dose activity, positive = more growth; S. cerevisiae slowed by influenza A NS1, growth recovery by OD600; 270,000 tested, 0.4% active; also: actives are rising curves; nearly all actives have a fitted effect of over 50% in size
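Read-out: OD600 growth recovery of NS1-expressing budding yeast. Cells grown overnight at 30C in -URA glucose medium, washed, resuspended and diluted 1:100 in 2% galactose assay medium, pH 6.0. Same strain lacking NS1 served as positive control.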
Cruzain Triton: inhibitors of Trypanosoma cruzi cruzain with detergent; P25779; 200,000 tested, 0.43% active; Potency, µM, inactives show max response, negative = inhibition, usual class: inhibitors; AID 1478; purified cruzain, Z-FR-AMC fluorescence, 0.01% Triton; active = well fitted curve in the direction sought with a large enough effect; inconclusive = small, poorly fitted or top-dose-only effect, or another doubt; inactive = no such curve, though single readings can be large; an effect the other way counts as inactive or inconclusive;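 also: plate controls were neutral wells for no effect and buffer without enzyme for full effect; nearly all actives have a fitted effect of over 40% in size; top concentration of the series not given in the record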
Target sequence (P25779 123-467 limits assumed): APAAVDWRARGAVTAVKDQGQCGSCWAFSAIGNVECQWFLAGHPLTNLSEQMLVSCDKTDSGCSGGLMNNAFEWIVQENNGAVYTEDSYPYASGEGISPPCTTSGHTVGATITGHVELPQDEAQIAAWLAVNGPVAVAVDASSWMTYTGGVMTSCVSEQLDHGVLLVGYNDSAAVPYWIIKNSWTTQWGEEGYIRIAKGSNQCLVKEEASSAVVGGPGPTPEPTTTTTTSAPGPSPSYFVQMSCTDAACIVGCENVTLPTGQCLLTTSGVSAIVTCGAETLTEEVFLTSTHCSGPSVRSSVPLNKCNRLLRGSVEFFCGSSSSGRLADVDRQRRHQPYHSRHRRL
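Detergent-containing arm of a paired screen for aggregation-based inhibition: 0.01% Triton X-100 present. Cruzain at 1.5 nM cleaved 2 uM Z-FR-AMC at pH 5.5 with 5 mM DTT; AMC fluorescence gain over 60 s measured activity.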
SARS PLpro yeast: inhibitors of SARS-CoV papain-like protease in yeast; S. cerevisiae expressing SARS-CoV PLpro, growth rescue; control for the full effect not named in the record; 330,000 tested, 0.19% active; Potency, µM (doses to about 32.9 µM), for inactives: at the highest dose activity, positive = growth rescue; AID 485353; also: 0% is about no effect; nearly all actives have a fitted effect of over 55% in size; growth read by luminescence after 48 h
StopGo reporter: lowers the luciferase signal of an FMDV 2A StopGo reporter | human cells with a luciferase reporter of 2A StopGo recoding; control for the full effect not named in the record | Potency, µM (highest dose often 57.9 µM), for inactives: top-dose signal change, negative = less light | 410,000 tested, 1.2% active; active = well fitted falling curve with a large enough effect; inconclusive = small, poorly fitted or top-dose-only effect; inactive = no such curve, though single readings can be large or run the other way; tested in HEK293T cells; also: % is scaled to controls: 0 for no effect and ±100 for the full control effect; nearly all actives have a fitted effect of over 45% in size; luciferase light after 4 h
Marburg entry inh: blocks Marburg virus binding to or entry into cells; Marburg virus pseudotyped entry inhibition, cell reporter; control for the full effect not named in the record; about a third of the inactives were read at about 46 µM; Potency, µM (highest dose often 37.8 µM), for the others: at the highest dose activity change, negative = inhibition, hits mostly inhibitors; 300,000 tested, 1.8% active; AID 540276; active = well fitted inhibition curve with a large enough effect; inconclusive = small, poorly fitted or top-dose-only effect, or effect the other way; inactive = flat fitted curve, though single readings scatter; tested in HEK293 cells; about a fifth of its hits are not listed in these tables; also: % is scaled to controls: 0 for no effect and ±100 for the full control effect; luciferase read-out
Lassa entry inh: blocks Lassa virus binding to or entry into cells; Potency, µM (highest dose often 37.9 µM), for inactives: at the highest dose activity change, negative = inhibition, usual class: inhibitors; Lassa virus pseudotype entry inhibition, cell reporter; control for the full effect not named in the record; 300,000 tested, 1.2% active; active means well fitted inhibition curve with a large enough effect; inconclusive means small, poorly fitted or top-dose-only effect, or effect the other way; inactive means flat fitted curve, though single readings scatter; tested in HEK293 cells; also: % is scaled to controls: 0 for no effect and ±100 for the full control effect; nearly all actives have a fitted effect of over 50% in size; luciferase read-out
Cruzain noTriton: blocks cruzain activity in detergent-free assay | Potency, µM, without a hit: max response, negative = inhibition, usual class: inhibitors | AID 1476 | 200,000 tested, 2.3% active | purified cruzain, Z-FR-AMC fluorescence, no detergent; active = well fitted curve in the direction sought with a large enough effect; inconclusive = small, poorly fitted or top-dose-only effect, or another doubt; inactive = no such curve, though single readings can be large; an effect the other way counts as inactive or inconclusive;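 also: plate controls were enzyme without inhibitor for no effect and buffer without enzyme for full effect; nearly all actives have a fitted effect of over 40% in size; top concentration of the series not given in the record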
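Purified cruzain at 1.5 nM, pre-incubated 15 min with compound at room temperature in 100 mM sodium acetate pH 5.5, 5 mM DTT, 0.00005% Triton X-100. Reaction started with 2 uM Z-FR-AMC; AMC fluorescence increase over 60 s gives rate.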
RE007 growth inh: less growth of the S. pombe RE007 Vpr strain; S. pombe RE007 Vpr strain, BacTiter-Glo ATP luminescence, 24 h; control for the full effect not named in the record; Potency, µM (top dose mostly 92.2 µM), without a hit: at the highest dose activity change, negative = less growth; 360,000 tested, 0.21% active; active = well fitted falling curve with a large enough effect; inconclusive = small, poorly fitted or top-dose-only effect; inactive = no such curve, though single readings can be large or run the other way;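 also: % is scaled to controls: 0 for no effect and ±100 for the full control effect; nearly all actives have a fitted effect of over 50% in size; the assay follows cell death caused by Vpr and the record does not say whether a fall means rescue or toxicity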
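Fission yeast RE007 carrying one integrated HIV-1 vpr copy, seeded at OD 0.01 in PMG+AL medium with 23 nL pinned compound. Grown 24 h at 30 degrees; viability read by BacTiter-Glo luminescence after 5 min.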
Starred values were filed as active, the others as inactive; & = joins results of further samples; [ ] = dose if it differs, or a comment. Unless noted, calls follow the shape of the dose curve; as a rule, active means well fitted rising curve with a large enough effect; inconclusive means small, poorly fitted or top-dose-only effect; inactive means no such curve, though single readings can be large or run the other way. Potency is read from the fitted curve at half-maximal effect.

For Cc1sc2ncnc(N3CCN(Cc4ccccc4)CC3)c2c1-c1ccccc1 the results were NS1 inh 6%, SARS PLpro yeast 10%, StopGo reporter 28µM*, Marburg entry inh 3%[46.1 µM], Lassa entry inh inconclusive and RE007 growth inh 4%.
Screening COc1ccc(NC(=O)COC(=O)c2cc(S(=O)(=O)N3CCCC3)ccc2O)cc1 returned SARS PLpro yeast -2%, StopGo reporter -17%, Marburg entry inh 5%[46.1 µM], Lassa entry inh 14%[46.1 µM] and RE007 growth inh 2%.
For CCOC(=O)C1=C(C)Nc2ccccc2N=C1NC(=O)CCCN1C(=O)c2ccccc2C1=O the results were NS1 inh -5%, Cruzain Triton 6.0%, SARS PLpro yeast -7%, StopGo reporter -18%, Marburg entry inh 5%, Lassa entry inh 1%, Cruzain noTriton 4% and RE007 growth inh 5%.
For COc1ccc(-c2nc(NC(=O)c3c(C)noc3C)sc2C)cc1 the results were SARS PLpro yeast 21%, StopGo reporter inconclusive, Marburg entry inh -23%, Lassa entry inh inconclusive and RE007 growth inh 27%.
`O=C(CCc1ccccc1)Nc1ccc(F)cc1F` gave NS1 inh 2%, Cruzain Triton 2.9%, SARS PLpro yeast -1%, Marburg entry inh inconclusive, Lassa entry inh -3%, Cruzain noTriton 0% and RE007 growth inh -11%.
`Cn1c(Oc2ccc(F)cc2)nc2c1c(=O)n(Cc1ccccc1Cl)c(=O)n2C` gave Cruzain Triton -0.3%, StopGo reporter 18µM*, Marburg entry inh inconclusive, Lassa entry inh inconclusive and Cruzain noTriton -5%.
Screening O=C(O)C1CN(C(=O)c2cccc(Br)c2)C1 returned NS1 inh 1%, SARS PLpro yeast 1%, StopGo reporter -7%, Marburg entry inh -28%[46.1 µM], Lassa entry inh 7%[46.1 µM] and RE007 growth inh -10%.
`CC1=C(C(=O)Nc2cc(C(=O)N(C)Cc3ccccc3)ccc2C)SCCO1` gave NS1 inh 9%, SARS PLpro yeast 12%, StopGo reporter 5% and RE007 growth inh 17%.
`O=C(CN(c1cccc(C(F)(F)F)c1)S(=O)(=O)c1ccc(Cl)c([N+](=O)[O-])c1)NCc1ccccc1Cl` gave NS1 inh 0%, Cruzain Triton -5.7%, SARS PLpro yeast -5%, StopGo reporter 40µM*, Marburg entry inh inconclusive, Lassa entry inh inconclusive, Cruzain noTriton 25µM* and RE007 growth inh 10%.
CCc1ccc(CNCc2c(C(=O)O)n(Cc3ccc(C)cc3)c3cc(C)ccc23)cc1 was read as Cruzain Triton -13%, StopGo reporter 0%, Lassa entry inh inconclusive and Cruzain noTriton -22%.
`CSc1ccc(C(=O)C2CCCN(Cc3cccn3-c3cccnc3)C2)cc1` (stereo not given) gave NS1 inh 0%, SARS PLpro yeast -2%, StopGo reporter inconclusive, Marburg entry inh inconclusive, Lassa entry inh inconclusive and RE007 growth inh -8%.
N#CC1(NC(=O)CSc2nnc(COc3ccccc3F)n2N)CCCCC1 was read as SARS PLpro yeast -3%, StopGo reporter -9%, Marburg entry inh 0%[46.1 µM], Lassa entry inh 3% and RE007 growth inh 5%.
Screening CC(C)c1ccccc1NC(=O)Nc1ccc(F)cc1F returned NS1 inh -34%, SARS PLpro yeast -1%, StopGo reporter -5%, Marburg entry inh 17%[46.1 µM], Lassa entry inh inconclusive and RE007 growth inh 5%.
For Cn1nc(C(=O)Nc2nc3ccc(S(C)(=O)=O)cc3s2)ccc1=O the results were NS1 inh 1%, Cruzain Triton 2.8%, SARS PLpro yeast 8%, StopGo reporter 0%, Marburg entry inh 0%, Lassa entry inh -1%, Cruzain noTriton -16% and RE007 growth inh inconclusive.
Cc1ccc(C(=O)CC2(O)C(=O)N(CCc3ccccc3)c3ccc(Br)cc32)cc1 (stereo not given) was read as Cruzain Triton -11%, StopGo reporter 3%, Marburg entry inh -26%[46.1 µM], Lassa entry inh inconclusive and Cruzain noTriton 8%.
For CCOC(=O)C1=C(C)NC(C)=C(C(=O)OCC)C1C1=COCCO1 the results were NS1 inh 0%, Cruzain Triton -2.9%, SARS PLpro yeast -2%, StopGo reporter -10%, Marburg entry inh inconclusive, Lassa entry inh -1%, Cruzain noTriton 10% and RE007 growth inh 9%.
O=c1cc2n(c(=O)[nH]1)CCC1=C2CCCC1 was read as NS1 inh -3%, Cruzain Triton -1.1%, SARS PLpro yeast 6%, StopGo reporter 8%, Marburg entry inh 5%, Lassa entry inh 19%, Cruzain noTriton -2% and RE007 growth inh -4%.
Screening CCOc1ccc(N(CC(=O)NCc2ccc(OC)cc2)S(=O)(=O)c2c(C)[nH]c(=O)[nH]c2=O)cc1 returned NS1 inh -7%, Cruzain Triton 0.7%, SARS PLpro yeast 1%, StopGo reporter -4%&-11%, Marburg entry inh inconclusive, Lassa entry inh 21%&17%[46.1 µM], Cruzain noTriton 2% and RE007 growth inh 0%.
Screening CC(C)n1cc(C(=O)N2CCCC(Nc3ccc(F)c(F)c3)C2)cn1 (stereo not given) returned NS1 inh 14%, SARS PLpro yeast -3%, StopGo reporter 0% and RE007 growth inh 44%.
O=C(O)c1ccc(N/N=C/c2ccnc3ccccc23)cc1 was read as NS1 inh 7%, SARS PLpro yeast 7%, StopGo reporter -8% and RE007 growth inh 7%.
`Cc1ccc(/C=N/NC(=O)CCSc2ccccc2)cc1` gave NS1 inh -22%, Cruzain Triton -6.6%, SARS PLpro yeast -13%, StopGo reporter 12%, Marburg entry inh 1%, Lassa entry inh -29%, Cruzain noTriton inconclusive and RE007 growth inh 2%.
`Cc1ccc(Cn2c(Sc3nnc(C)s3)nc3c2c(=O)[nH]c(=O)n3C)cc1` gave NS1 inh 1%, Cruzain Triton 2.8%, SARS PLpro yeast 2%, StopGo reporter -8%, Cruzain noTriton -4% and RE007 growth inh 0%.
Screening Cc1c(NC(=O)c2ccc(Cl)nc2)cccc1-c1nc2cccnc2s1 returned NS1 inh -91%, SARS PLpro yeast -5%, StopGo reporter -27% and RE007 growth inh 2%.
Screening Nc1nonc1-n1nnc(C(=O)N/N=C/c2ccccc2F)c1-c1cccs1 returned NS1 inh 6%, SARS PLpro yeast 10%, StopGo reporter -11% and RE007 growth inh -7%.
CC(C)(C)C(=O)Nc1nc(-c2ccc3c(c2)OCO3)cs1 was read as NS1 inh -7%, Cruzain Triton -9.7%, SARS PLpro yeast -2%, StopGo reporter 0%, Marburg entry inh -10%, Lassa entry inh inconclusive, Cruzain noTriton -5% and RE007 growth inh -4%.
For Cc1ccc(C)c(C(=O)c2c(N)c(-c3nc(-c4ccc5c(c4)OCO5)cs3)c3ccccn23)c1 the results were Cruzain Triton -2.0%, StopGo reporter 24%, Marburg entry inh 1%[46.1 µM], Lassa entry inh 2%[46.1 µM] and Cruzain noTriton 5µM*.
Screening C[N+](C)(C)CC#CCOC(=O)Nc1cccc(Cl)c1 returned NS1 inh -19%, Cruzain Triton -4.8%, StopGo reporter 0%&-12%&-6%, Marburg entry inh inconclusive, Lassa entry inh -7%, Cruzain noTriton 4% and RE007 growth inh -9%.
O=C(/C=C/c1ccco1)Nc1ccc(CN2CCOCC2)cc1 was read as NS1 inh 1%, SARS PLpro yeast 0%, StopGo reporter 5% and RE007 growth inh 0%.
`O=S(=O)(c1ccc(-c2ccon2)s1)N1CCN(CCN2CCOCC2)CC1` gave NS1 inh inconclusive, SARS PLpro yeast -1%, StopGo reporter 3%, Marburg entry inh 0%, Lassa entry inh 14% and RE007 growth inh 10%.
Screening O=c1c2ccccc2nc(COc2ccccc2)n1/N=C/c1cc([N+](=O)[O-])ccc1O returned NS1 inh -29%, Cruzain Triton -12%, SARS PLpro yeast 5.6µM*, StopGo reporter -24%, Marburg entry inh inconclusive, Lassa entry inh inconclusive, Cruzain noTriton inconclusive and RE007 growth inh inconclusive.
For Cc1cc(NC(=O)/C=C/c2ccccc2)no1 the results were NS1 inh -112%, Cruzain Triton -2.5%, SARS PLpro yeast -8%, Marburg entry inh -10%, Lassa entry inh 18%, Cruzain noTriton -1% and RE007 growth inh -2%.
For CC1(C)Cc2c(sc3nnn(Cc4ccc(Cl)cc4)c(=O)c23)CO1 the results were NS1 inh -7%, Cruzain Triton -7.7%, SARS PLpro yeast -25%, StopGo reporter -22%, Marburg entry inh inconclusive, Lassa entry inh inconclusive and Cruzain noTriton -7%.
For N#Cc1c(N)n(CCOC(=O)c2ccc(Cl)cc2)c2nc3ccccc3nc12 the results were NS1 inh -8%, Cruzain Triton -4.2%, SARS PLpro yeast -2%, StopGo reporter inconclusive, Marburg entry inh 2%, Lassa entry inh 9%, Cruzain noTriton inconclusive and RE007 growth inh 17%.
Screening CC(C)(C)N(Cc1ccccc1)C(=O)CSc1ncn[nH]1 returned NS1 inh 4%, SARS PLpro yeast -6%, StopGo reporter -12%, Marburg entry inh -9%[46.1 µM], Lassa entry inh -6% and RE007 growth inh 5%.
Screening Cc1ccccc1-c1noc(-c2cccnc2NCc2ccco2)n1 returned Cruzain Triton -1.6%, StopGo reporter 53%[activator], Marburg entry inh 10%[46.1 µM], Lassa entry inh inconclusive and Cruzain noTriton -14%.
For Cc1cccc(C)c1NC(=S)NCc1ccncc1 the results were NS1 inh 7%, SARS PLpro yeast 0%, StopGo reporter 8%, Marburg entry inh 0%[46.1 µM], Lassa entry inh 12% and RE007 growth inh 9%.
`Cc1ccc(N2C(=O)c3ccccc3C2Nc2ccccc2F)nc1` (stereo not given) gave NS1 inh -70%, Cruzain Triton -8.2%, SARS PLpro yeast 0%, StopGo reporter inconclusive, Cruzain noTriton -2% and RE007 growth inh -14%.
COc1ccc(NC(=O)CN(C)C(=O)c2ccc(OCc3ccccc3)c(OC)c2)cc1 was read as SARS PLpro yeast 2%, StopGo reporter 13%, Marburg entry inh -12%, Lassa entry inh -1% and RE007 growth inh 9%.
Screening CCCCNC(=O)C(CC)Sc1nc2ccccc2c(=O)n1CCc1ccc(OC)c(OC)c1 (stereo not given) returned Cruzain Triton 5.2%, StopGo reporter 0%, Lassa entry inh inconclusive and Cruzain noTriton -6%.
For O=C(NNC(=O)c1ccc(-n2cncn2)c([N+](=O)[O-])c1)c1ccc(Cl)cc1 the results were SARS PLpro yeast 2%, StopGo reporter -14%, Marburg entry inh 6%, Lassa entry inh inconclusive and RE007 growth inh 13%.
`O=C(NCCCN1CCOCC1)c1ccc2c(c1)N(Cc1ccc(F)cc1)CCS2` gave NS1 inh -2%, SARS PLpro yeast 3%, StopGo reporter -17% and RE007 growth inh 4%.
